# Compound activity from PubChem BioAssay.
# HSV augment – enhancers of HSV replication in host cells, fold increase, host cell viability; HSV replication augmentation in cells; maximum fold increase; actives 0.005% (n = 220,000); AID 1956, 2009;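 active means peak rise of 1.5-fold or more in the series; inconclusive means self-fluorescent or not available for retest; tested in PC3 cells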;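 further: first round at 10 µM; read as green reporter fluorescence; hits show the peak of a series up to 25 µM; 1 = signal of infected wells without compound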
# PKD1 inh – inhibitors of human PKD1 kinase, biochemical, fluorescence polarization; actives 0.056% (n = 200,000); PKD1 kinase fluorescence polarization assay; Serine/threonine-protein kinase D1 (Homo sapiens), Q15139; inhibition, %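 (about 10 µM by stock and volumes)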;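 active means inhibition of 50% or more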;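 further: controls were vehicle for no effect and a reference inhibitor for full effect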
# INS promoter inh – inhibitors of insulin promoter-driven GFP, primary screen, imaging, TRM-6 cells (human fetal islet line), eGFP reporter, cell count; reporter expression induced with tamoxifen; inhibition, % at 2 µM; actives 0.9% (n = 130,000); AID 1273, 2008;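 active means inhibition above the mean plus 3 SD, with well images judged a real hit on visual review, cut at about 60% in these data, passing the limit was not always enough; inconclusive means inhibition over the cutoff but images rejected on review; inactive means inhibition not above the cutoff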
# RGS16-Gao – modulators of RGS16 binding to Galphao, primary screen, biochemical, human proteins, multiplexed bead flow cytometry | bead-based flow cytometry RGS16-Galphao binding, fluorescence; actives lie on both sides | binding response (% of control), % at 10 µM | actives 0.38% (n = 220,000);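 active means below 25% or above 175%, edge rows of some plates excepted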;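 further: Galphao activated by GDP with aluminum fluoride before binding; 100% = wells without compound and 0% = beads without RGS; some results beyond the cut were filed as inactive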
# Target sequence (O15492 whole entry, looked up): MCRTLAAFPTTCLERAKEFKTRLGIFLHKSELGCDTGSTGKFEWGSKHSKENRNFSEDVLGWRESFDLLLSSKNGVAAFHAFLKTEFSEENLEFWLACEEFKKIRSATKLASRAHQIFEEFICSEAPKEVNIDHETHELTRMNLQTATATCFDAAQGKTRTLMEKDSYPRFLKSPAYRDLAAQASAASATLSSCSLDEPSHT
# Target sequence (P09471 whole entry, looked up): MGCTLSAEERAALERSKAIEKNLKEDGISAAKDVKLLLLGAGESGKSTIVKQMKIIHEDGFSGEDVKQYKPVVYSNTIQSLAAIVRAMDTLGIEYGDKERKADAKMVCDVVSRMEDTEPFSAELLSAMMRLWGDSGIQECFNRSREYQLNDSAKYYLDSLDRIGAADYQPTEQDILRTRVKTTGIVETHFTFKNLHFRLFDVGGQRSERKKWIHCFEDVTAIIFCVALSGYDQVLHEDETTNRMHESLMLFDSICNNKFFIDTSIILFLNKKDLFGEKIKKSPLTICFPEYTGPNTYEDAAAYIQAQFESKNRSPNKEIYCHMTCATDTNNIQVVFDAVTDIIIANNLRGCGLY
# GALR2 ag – GALR2 receptor agonists, primary screen, cell-based; activation, %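 (tested at 5 µM)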; AID 803, 2007; GALR2-expressing cells, agonist activation read-out; Galanin receptor type 2 (Homo sapiens), O43603; actives 0.48% (n = 140,000);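 active means above mean plus 3 SD of all compounds, about 5% in these data, not always enough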;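 further: 0% = vehicle buffer wells and 100% = reference agonist at full effect; tested in CHO reporter cells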
# Target sequence (O43603 whole entry, looked up): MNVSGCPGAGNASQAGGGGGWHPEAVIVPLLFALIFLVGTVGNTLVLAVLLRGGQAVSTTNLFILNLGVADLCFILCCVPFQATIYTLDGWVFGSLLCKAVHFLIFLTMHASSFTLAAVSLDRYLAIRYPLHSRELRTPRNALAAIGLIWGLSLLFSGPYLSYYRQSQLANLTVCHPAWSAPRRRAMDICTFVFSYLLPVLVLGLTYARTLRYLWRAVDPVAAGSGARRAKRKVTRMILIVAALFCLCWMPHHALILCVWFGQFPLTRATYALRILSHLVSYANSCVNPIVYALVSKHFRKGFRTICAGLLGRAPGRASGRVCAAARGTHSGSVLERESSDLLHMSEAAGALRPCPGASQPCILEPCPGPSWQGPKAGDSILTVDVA
# INS promoter inh cell count – further read-out of INS promoter inh, marked with its call; normalized cell count, %; measured here: cell count, toxicity; reference of the scale not given here;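 cells exposed to compound for 48 h; stained nuclei by imaging scaled within each plate; lower means fewer cells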
# HSV augment primary fold – also measured in HSV augment; calls as there; fold increase; compound at 10 µM; measured here: primary screen fold increase 10 uM; tested in PC3 cells;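 GFP signal in the first replicate; 1 = infected wells without compound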
# Active calls of the source: *; i = inactive; ? = inconclusive; . = no result given.
molecule	INS promoter inh	INS promoter inh cell count	HSV augment primary fold	RGS16-Gao	PKD1 inh	GALR2 ag	HSV augment
CCOC(=O)C1CCN(C(=O)Cc2c(C(=O)O)n(C)c3ccccc23)CC1	45	133	.	100	-1	-2.0	.
C=CCOC(=O)C1=C[C@H](c2ccccc2)[C@@H](CCCO)[C@H](OCC)O1	.	.	1.2	102	5	.	i
CC(C)Sc1nc(-c2cccs2)nc2c1c(=O)n(C)c(=O)n2C	.	.	0.91	103	5	.	i
Cc1ccc(C2C3C(=O)N(c4ccc(C)cc4)C(=O)C3N3CCCN23)cc1 (centres undefined)	.	.	1.1	99	.	.	i
COCCCNC(=O)c1cn(C)c(=O)c2cc(OC)c(OC)cc12	.	.	1.1	104	-2	-2.5	i
O=C(CSc1nnc(Cn2nnc3ccccc32)o1)Nc1ccc(Cl)cc1	19	89	.	108	-5	-0.8	.
C/C(=N\Nc1ccc2nncn2n1)c1ccccn1	.	.	0.72	105	.	.	i
O=S(=O)(Nc1ccccn1)c1ccc(C2CCCCC2)cc1	-23	118	0.86	103	-4	0.1	i
Cc1onc(-c2ccccc2)c1C(=O)OCC(=O)NCc1ccc(F)cc1	.	.	1.1	101	0	.	i
CCOC(=O)c1sc(N2N=C(C)C(N=Nc3cccc(C)c3)C2=O)nc1C (centres undefined)	.	.	1	104	.	.	i
COc1ccc2[nH]c(=O)c(CN(CC3CCCO3)C(=S)Nc3ccccc3)cc2c1 (centres undefined)	.	.	0.78	102	-6	.	i
CC(C)CC(=O)Nc1cccc(C(=O)Nc2ccccc2C(=O)O)c1	-40	105	0.93	97	0	-0.9	i
Cc1nnc(SCC(=O)O)o1	.	.	1.2	107	-1	.	i
COc1ccc(C2=NN(C(N)=S)C(c3ccco3)C2)cc1 (centres undefined)	.	.	1.2	101	-7	.	i
CCC(=O)N/N=C(\C)CC(=O)Nc1cc(Cl)ccc1C	.	.	1.1	125	6	0.7	i
CCC(=O)Nc1cccc(C2=NOC3(C2)C[C@@H](C(N)=O)N(C(=O)c2ccccc2C(=O)c2ccccc2)C3)c1 (some centres undefined)	.	.	0.83	106	.	.	i
CN(c1ccccc1C(=O)Nc1ccc2c(c1)OCCO2)S(C)(=O)=O	3	81	0.75	102	-1	-0.6	i
Cc1ccc(OCC(=O)Nc2ccc(F)cc2)c([N+](=O)[O-])n1	.	.	0.92	103	10	.	i
CC(C)C1Cc2c(sc3[nH]c(=S)n(Cc4ccccc4)c(=O)c23)CO1 (centres undefined)	24	86	.	97	2	0.2	.
CC1(C)SC(=S)N(c2ccccc2)C1/[N+]([O-])=C/c1cccc([N+](=O)[O-])c1 (centres undefined)	.	.	.	97	.	.	?
CCOC(=O)C1=C(C)NC(=S)N(C(C)=O)C1c1ccccc1 (centres undefined)	-33	85	0.81	116	-3	-0.9	i
CCCCn1c(N)c(Sc2ccc(Cl)cc2)c(=O)[nH]c1=O	-4	134	1.1	106	2	-1.1	i
CCCn1cc2c(c1-c1cccc(C)c1)c(=O)n(C)c(=O)n2C	15	80	0.94	100	-1	-2.2	i
CN1CCN(CCC(=O)N/N=C/C=C2\N(C)c3ccccc3C2(C)C)CC1	.	.	1.1	101	-7	.	i
CCOC(=O)Cn1c(O)c(N=NC(=O)OC)c2ccccc21	.	.	1.2	101	.	.	i
CN(C)C=Nc1nonc1-c1ccccc1	.	.	1	79	.	.	i
Cc1ccc(S(=O)(=O)N2CCOCC2)cc1C(=O)NCc1cccnc1	-30	75	0.99	105	-3	-1.0	i
O=C(Oc1ccccc1)c1ccc2c(c1)C(=O)N(Cc1ccncc1)C2=O	.	.	1.2	110	.	.	i
CCOc1cccc(C(=O)NC2CCCCC2)c1	-147	87	0.99	101	-4	-2.9	i
Cc1ccc(OCC(=O)Nc2ccc(C)c(S(=O)(=O)N3CCCCC3)c2)c([N+](=O)[O-])n1	.	.	0.88	103	2	-0.3	i
CC(C)NC(=O)c1cnn2c1NC(c1cccs1)CC2C(F)(F)F (centres undefined)	23	72	0.88	54	-8	-0.7	i
CCCCC1=CC2=CC(=O)C(C)(OC(=O)CC)C(=O)C2=CN1CCc1ccc(Br)cc1 (centres undefined)	.	.	0.95	104	.	.	i
Cc1ccsc1S(=O)(=O)N1CCC(CO)(CC2CCCCO2)CC1 (centres undefined)	.	.	0.85	99	9	.	i
COC(=O)/C(=C1/Oc2cc(C)oc(=O)c2S1)C(F)(F)F	.	.	1.3	98	-3	-1.6	i
CCn1ncc(Br)c1C(=O)N(C)C12CC3CC(CC(C3)C1)C2	.	.	0.95	107	-9	0.6	i
CCc1c(C#N)c(SCCC(=O)Nc2ccc(OC)cc2)nc2c1C(=O)CC(C)(C)C2	-14	140	0.98	118	-2	-1.1	i
O=C(COc1ccc(Br)cc1)Nc1ccc(Cc2ccncc2)cc1	23	158	1.1	103	-5	.	i
Cc1noc2ncnc(Sc3ccc(Br)cc3)c12	.	.	0.93	101	6	.	i
CSc1nc(N2CCOCC2)c2c(c1C#N)CCCCC2	65	85	0.81	107	-2	0.5	i
CCN(Cc1ccccc1)C(=S)Nc1cc(C(=O)OC)ccc1C(=O)OC	-72	114	0.92	106	-4	0.5	i
O=[N+]([O-])c1cccc(C2=NCCC(c3ccccc3)O2)c1 (centres undefined)	35	130	0.84	120	-1	-0.5	i
CCC(C)(C)n1nnnc1C(c1ccc(C)cc1)N1CCN(C(=O)c2ccco2)CC1 (centres undefined)	56	136	1	37	-15	-0.8	i
COc1ccc(-c2ccc(SCC(=O)N3c4ccccc4CC3C)nn2)cc1OC (centres undefined)	11	95	0.97	103	8	-0.2	i
FC(F)(F)c1cccc(N2CCN(Cc3ccoc3)CC2)c1	.	.	0.71	106	-9	-1.8	i
COc1ccc(NC(=O)CCCNS(=O)(=O)c2cccs2)cc1	4	95	0.9	99	-10	-2.5	i
O=C(c1ccco1)N1CCN(CCOc2ccccc2)CC1	.	.	1.1	101	.	.	i
NC(=O)C[n+]1cccc(/C=N/O)c1	.	.	1	108	-3	.	i
O=C(CSc1nnc(-c2cccnc2)n1-c1ccccc1)Nc1ccc2c(c1)OCO2	-123	73	0.75	101	-10	-1.6	i
CNC(=O)NC(=O)C(C)OC(=O)c1c2c(nc3ccccc13)/C(=C/c1cccs1)CC2 (centres undefined)	.	.	1.1	97	-2	6.6*	i
O=C(CS(=O)(=O)Cc1ccccc1)NCC1CCCO1 (centres undefined)	11	95	0.78	106	-1	-1.8	i

# Later entries:
molecule	INS promoter inh	INS promoter inh cell count	HSV augment primary fold	RGS16-Gao	PKD1 inh	GALR2 ag	HSV augment
O=C(OCc1ccccc1)C1=NNC2C(=O)N(Cc3ccccc3)C(=O)C12 (centres undefined)	.	.	1	96	-5	.	i
CC(C)(C)NC(=O)Cn1nnc(-c2ccc(Cl)cc2)n1	.	.	0.75	98	-6	-2.9	i
CCOC(=O)CCNC(=O)N1CCCC(C(=O)c2ccc3c(c2)OCO3)C1 (centres undefined)	.	.	0.99	104	-5	.	i
CC(C)Cn1c(=O)oc2ccccc21	.	.	0.91	113	-3	.	i
Cc1cc(NC(=O)CSc2nc3c(cc2C#N)CCCC3)no1	-23	98	0.84	95	5	-0.2	i
Cc1ccc(C(c2nnnn2C2CCCCC2)N(C)C2CCCCC2)cc1 (centres undefined)	.	.	1.1	105	0	-4.6	i
COCc1nc2ccccc2n1Cc1cccc(C)c1	23	79	1.1	100	-8	-2.2	i
CN(Cc1ccccc1)C(=O)c1ccc2c(c1)NC(=O)C(N1CCOCC1)S2 (centres undefined)	-70	61	1.1	98	-2	.	i
O=C(O)CCCCCNS(=O)(=O)c1cccc2nsnc12	0	110	0.83	112	-13	-1.1	i
Cc1cccn2c(=O)c(/C=C(\C#N)C(=O)NCc3ccco3)c(N3CCOCC3)nc12	.	.	0.85	103	.	.	i
O=C(N/N=C/c1c[nH]c2ccccc12)C1CC1(c1ccccc1)c1ccccc1 (centres undefined)	24	116	0.98	361	-7	-0.3	i
O=C(Nc1ccc(S(=O)(=O)N2CCc3ccccc32)cc1)c1ccco1	.	.	0.89	100	1	0.2	i
O=C1N(Cc2cccc(Cl)c2)C[C@@H]2C[C@@H](c3cccn3-c3nccs3)N3CCC[C@@]123	.	.	0.81	100	-3	.	i
Cc1ccc(Cn2c([N+](=O)[O-])cnc2C)cc1	-10	108	1.1	97	0	-1.5	i
O=[N+]([O-])c1ccc(O)c2cccnc12	.	.	0.88	99	3	.	i
CCC(CC)C(=O)NCCc1cc2ccc(OC)cc2[nH]c1=O	-18	128	.	101	1	-1.2	.
O=C(COC(=O)CCc1c[nH]c(=O)[nH]1)Nc1ccccc1	.	.	1	98	-2	-1.7	i
C#CCOCCOCCOCCNc1nc(N2CCOCC2)nc(N2CCN(C(=O)Cn3cc(CCCN=C(N)N)nn3)CC2)n1	40	134	0.73	107	-1	-2.7	i
COc1ccc(N/C=C2/CCCCC2=O)cc1	18	90	1.1	103	-6	-3.8	i
CCOC(=O)C1CCCN(C(=O)c2cn(C)c3ccc(S(=O)(=O)N(C)C)cc3c2=O)C1 (centres undefined)	.	.	1.1	103	6	-4.7	i

# Grouped by structure, the compounds so far containing a halogen.
molecule	INS promoter inh	INS promoter inh cell count	HSV augment primary fold	RGS16-Gao	PKD1 inh	GALR2 ag	HSV augment
O=C(CSc1nnc(Cn2nnc3ccccc32)o1)Nc1ccc(Cl)cc1	19	89	.	108	-5	-0.8	.
Cc1onc(-c2ccccc2)c1C(=O)OCC(=O)NCc1ccc(F)cc1	.	.	1.1	101	0	.	i
CCC(=O)N/N=C(\C)CC(=O)Nc1cc(Cl)ccc1C	.	.	1.1	125	6	0.7	i
Cc1ccc(OCC(=O)Nc2ccc(F)cc2)c([N+](=O)[O-])n1	.	.	0.92	103	10	.	i
CCCCn1c(N)c(Sc2ccc(Cl)cc2)c(=O)[nH]c1=O	-4	134	1.1	106	2	-1.1	i
CC(C)NC(=O)c1cnn2c1NC(c1cccs1)CC2C(F)(F)F (centres undefined)	23	72	0.88	54	-8	-0.7	i
CCCCC1=CC2=CC(=O)C(C)(OC(=O)CC)C(=O)C2=CN1CCc1ccc(Br)cc1 (centres undefined)	.	.	0.95	104	.	.	i
COC(=O)/C(=C1/Oc2cc(C)oc(=O)c2S1)C(F)(F)F	.	.	1.3	98	-3	-1.6	i
CCn1ncc(Br)c1C(=O)N(C)C12CC3CC(CC(C3)C1)C2	.	.	0.95	107	-9	0.6	i
O=C(COc1ccc(Br)cc1)Nc1ccc(Cc2ccncc2)cc1	23	158	1.1	103	-5	.	i
Cc1noc2ncnc(Sc3ccc(Br)cc3)c12	.	.	0.93	101	6	.	i
FC(F)(F)c1cccc(N2CCN(Cc3ccoc3)CC2)c1	.	.	0.71	106	-9	-1.8	i
CC(C)(C)NC(=O)Cn1nnc(-c2ccc(Cl)cc2)n1	.	.	0.75	98	-6	-2.9	i
O=C1N(Cc2cccc(Cl)c2)C[C@@H]2C[C@@H](c3cccn3-c3nccs3)N3CCC[C@@]123	.	.	0.81	100	-3	.	i

# Part of the list above, with two lines to a compound.
# The line under a structure holds: INS promoter inh, INS promoter inh cell count, HSV augment primary fold, RGS16-Gao, PKD1 inh, GALR2 ag, HSV augment
> O=C(COC(=O)CCc1c[nH]c(=O)[nH]1)Nc1ccccc1
    ., ., 1, 98, -2, -1.7, i
> C#CCOCCOCCOCCNc1nc(N2CCOCC2)nc(N2CCN(C(=O)Cn3cc(CCCN=C(N)N)nn3)CC2)n1
    40, 134, 0.73, 107, -1, -2.7, i
> COc1ccc(N/C=C2/CCCCC2=O)cc1
    18, 90, 1.1, 103, -6, -3.8, i
